KCNQ2 block – KCNQ2 potassium channel inhibitors, primary screen, cell-based, CHO-K1, FluxOR thallium flux, B-score (AID 2156); hit rate 1.1% among 310,000; 20 min; stronger effect = lower value; only compounds with negative scores are shown here; some inactives read as strong as hits; B-score at 10 µM; Potassium voltage-gated channel subfamily KQT member 2 (Rattus norvegicus), O88943;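 active = fluorescence ratio B-score at most minus 3 library SDs, with starting brightness B-score within 2 library SDs, cut at about -5.5 in these data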
Target sequence (O88943 whole entry, looked up): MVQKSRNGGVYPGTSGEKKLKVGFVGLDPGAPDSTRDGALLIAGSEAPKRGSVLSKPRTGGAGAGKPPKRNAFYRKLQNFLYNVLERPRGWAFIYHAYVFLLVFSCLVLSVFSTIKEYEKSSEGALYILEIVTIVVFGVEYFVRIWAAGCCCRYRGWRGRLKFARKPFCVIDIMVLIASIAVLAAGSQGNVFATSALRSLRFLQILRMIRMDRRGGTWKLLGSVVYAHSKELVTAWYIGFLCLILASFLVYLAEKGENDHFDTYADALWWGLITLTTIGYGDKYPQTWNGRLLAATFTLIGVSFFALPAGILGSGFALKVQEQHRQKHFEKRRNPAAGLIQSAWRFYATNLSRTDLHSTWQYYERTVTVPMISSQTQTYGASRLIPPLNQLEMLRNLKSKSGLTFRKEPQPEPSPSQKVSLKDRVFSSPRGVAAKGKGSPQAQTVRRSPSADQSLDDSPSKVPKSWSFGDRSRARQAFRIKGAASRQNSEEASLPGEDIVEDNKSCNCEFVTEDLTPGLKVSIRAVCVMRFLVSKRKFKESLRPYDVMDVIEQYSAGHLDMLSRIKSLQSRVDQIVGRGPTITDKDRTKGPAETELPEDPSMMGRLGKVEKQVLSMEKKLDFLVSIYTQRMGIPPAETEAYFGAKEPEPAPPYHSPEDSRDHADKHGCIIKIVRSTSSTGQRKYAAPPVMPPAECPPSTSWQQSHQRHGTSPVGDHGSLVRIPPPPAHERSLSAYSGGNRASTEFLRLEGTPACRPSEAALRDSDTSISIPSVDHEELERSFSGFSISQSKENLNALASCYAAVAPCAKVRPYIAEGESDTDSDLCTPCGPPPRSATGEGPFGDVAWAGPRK
KCNQ2 block baseline – second read-out of KCNQ2 block, no call of its own (marks repeat the call); B-score; measured here: initial fluorescence intensity artifact check;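 brightness before thallium and not channel activity; 0 = typical well and far values either way flag optical interference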
* hit, by the source's call; i = inactive. These rows are one share of the data; the hit share may differ from the screen's.

#	KCNQ2 block	KCNQ2 block baseline	smiles
1	i	-1.2	Cc1cc2c(cc1S(=O)(=O)N1CCN(c3ccc(Cl)cc3)CC1)OCCN2C
2	i	-0.06	CCC(CC)NC(=O)C1CCN(S(=O)(=O)c2cccs2)CC1
3	i	4.6	Cc1nc(Cc2ccc(OC(C)C)cc2)[nH]c(=O)c1CC(=O)O
4	i	0.35	Cc1nc(C(F)(F)F)c(C(=O)N/N=C(\N)c2cccnc2)s1
5	i	-1.1	Cc1ccccc1-n1cc(CNC(=O)CCc2nnc(CCc3ccccc3)o2)cn1
6	i	-0.02	Cc1cccn2cc(-c3cccc(S(=O)(=O)N4CCCCC4)c3)nc12
7	i	-0.84	CCN(CC)c1ccc(CC(=O)NC(C)Cc2ccccc2)cc1 (stereo not drawn)
8	i	1.2	N#Cc1cnn(-c2ccc(F)cc2)c1N
9	i	-0.02	Cc1nn(CCN)c(C)c1Cl
10	i	-1.4	CCOc1ccc(S(=O)(=O)N2CCN(S(=O)(=O)c3ccc(OCC)cc3)C(C)C2)cc1 (stereo not drawn)
11	i	-0.78	CCOc1ccccc1Oc1cn[nH]c1-c1ccc(OC)cc1O
12	i	1.6	Cn1c(N)c(N=O)c(=O)n(C)c1=O
13	i	-0.4	COc1ccc(C(Cl)=C(c2ccc(OC)cc2)c2ccc(OC)cc2)cc1
14	i	1.9	Cc1ccc(S(=O)(=O)N2CCCCC2)cc1NC(=O)CNc1ccc(C(F)(F)F)cc1
15	i	0.67	CCC(=O)Nc1ccc(S(=O)(=O)NCc2ccco2)cc1
16	i	-0.95	CCOc1ccc(Br)cc1C(=O)N/N=C/c1ccc([N+](=O)[O-])cc1
17	i	0.03	OCCC1CN(Cc2ccc3c(c2)CCO3)CCN1Cc1ccc(F)cc1 (stereo not drawn)
18	i	0.58	O=C(NCc1nnnn1-c1ccc(F)c(F)c1)c1cc2ccccc2o1
19	i	-0.12	O=C(N/N=C/C1C(c2ccccc2)C1(Cl)Cl)c1cccc(Br)c1 (stereo not drawn)
20	i	0.47	Cc1cnc(C(=O)Nc2ccc(C(C)C)cc2)cn1
21	i	2.9	CCCc1cc(=O)oc2cc(OCC(=O)NCCCn3ccnc3)ccc12
22	i	2.5	O=C(O)CSc1c(-c2cccs2)[nH]c2ccccc12
23	i	1.6	COCn1c(=O)c2c(nc(SC3=NCCS3)n2Cc2ccccc2C)n(COC)c1=O
24	i	0.05	CCc1c(C)nc(SCc2cccnc2)[nH]c1=O
25	i	-1.3	Cc1ccc(/C=N/N=C2\SCC(=O)N2CC2CC2)cc1
26	i	-0.37	CC(C)n1cc(/C=C2/SC(=O)N(CC(=O)N3CCCC3)C2=O)c2ccccc21
27	i	2.6	O=C1C2CCCN2C(=O)N1CCCN1CCN(c2cccc(Br)c2)CC1 (stereo not drawn)
28	i	0.42	CC(c1ccco1)N(C(=O)C12CC3CC(CC(C)(C3)C1)C2)c1ccccn1 (stereo not drawn)
29	i	-0.27	COC(=O)COc1ccc(C(=O)OC)cc1
30	i	0.26	Nc1nc(NC(=O)/C=C/c2ccc(F)cc2)nn1-c1ccccc1

Sorted by the number under KCNQ2 block baseline (largest number first): 3 of the compounds above.
| item | mol | KCNQ2 block | KCNQ2 block baseline |
| --- | --- | --- | --- |
| 3 | Cc1nc(Cc2ccc(OC(C)C)cc2)[nH]c(=O)c1CC(=O)O | i | 4.6 |
| 14 | Cc1ccc(S(=O)(=O)N2CCCCC2)cc1NC(=O)CNc1ccc(C(F)(F)F)cc1 | i | 1.9 |
| 30 | Nc1nc(NC(=O)/C=C/c2ccc(F)cc2)nn1-c1ccccc1 | i | 0.26 |

New compounds follow
#	KCNQ2 block	KCNQ2 block baseline	smiles
31	i	-0.37	CCn1cnc2cc([N+](=O)[O-])ccc21
32	i	-1.6	O=C(N/N=C/c1cc([N+](=O)[O-])ccc1O)c1cc(-c2ccccc2)nc2ccccc12
33	i	1.1	CCc1nnc(NC(=O)CC(C)c2ccccc2)s1 (stereo not drawn)
34	i	-0.51	COCCCNC(=O)CCCn1c(=O)c2ccccc2n(CC(=O)Nc2c(C)cc(C)cc2C)c1=O
35	i	0.72	COc1ccc(OCC(=O)N2CCN(C(=O)c3ccc([N+](=O)[O-])cc3)CC2)cc1
36	i	3.2	C=CC(=O)NCC1OCCc2ccccc21 (stereo not drawn)
37	i	-0.91	CC(=O)N1CCOc2ccc(S(=O)(=O)NC(C)c3ccccc3)cc21 (stereo not drawn)
38	i	-0.68	CCOc1ccc(CCNC(=O)c2cc(-c3ccccc3)c(N3CCOCC3)s2)cc1OCC
39	i	2.1	COc1cc(/C=C2\SC(=S)N(C(C(=O)O)c3ccccc3)C2=O)ccc1O (stereo not drawn)
40	i	0.62	O=C(CN(Cc1ccco1)C(=O)CCC(=O)Nc1nccs1)NCc1ccccc1
41	i	-1.5	CCC(Oc1ccccc1)C(=O)Nc1ccccc1N1CCCCC1 (stereo not drawn)
42	i	-0.14	CCOC(=O)C1=NN(C(=O)Cc2ccccc2)C(O)(c2ccc(Cl)cc2)C1 (stereo not drawn)
43	-7.2*	1.2*	O=C(Nc1nc2n(n1)C(c1ccccc1)CC(c1ccc(Cl)cc1)N2)c1ccco1 (stereo not drawn)
44	i	0.92	CC(=O)N(Cc1ccco1)Cc1cc2cccc(C)c2n2nnnc12
45	i	1.3	CN1CCN(NC(=O)c2ccc(Br)s2)CC1
46	i	-1.1	COc1cc(/C=N/NC(=O)CSc2ccccn2)ccc1O
47	i	-0.28	CCN(c1ccccc1)S(=O)(=O)c1ccc(C(=O)N(CCCN(C)C)c2nc3cc4c(cc3s2)OCO4)cc1
48	i	0.44	N#C/C(=C\c1cccs1)C(=O)c1ccccc1Cl
49	i	-0.04	Cc1ccccc1CN1C(=O)C(O)(CC(=O)c2ccncc2)c2ccccc21 (stereo not drawn)
50	i	-1.6	O=C(COc1cccnc1[N+](=O)[O-])NCc1ccc2c(c1)OCO2
51	i	-1	CCOc1ccccc1NC(=O)c1ccc(NC(=O)C2CCCO2)cc1 (stereo not drawn)
52	i	-0.97	O=C(CSc1nnnn1-c1ccccc1)N1CCN(C(=O)c2ccco2)CC1
53	i	-0.17	O=C(c1cc2cc3ccc(Cl)cc3nc2o1)N1CCCCCC1
54	i	0.54	Cc1ccc(-c2[nH]c(=O)n3ccncc23)s1
55	i	-0.09	COc1ccc(/C(C)=N/OCC(=O)N2CC3(C)CC2CC(C)(C)C3)cc1 (stereo not drawn)
56	i	-0.08	c1ccc(N(c2ccccc2)c2nc(N3CCCC3)nc(-n3ccnc3)n2)cc1
57	i	1.8	Cc1ccc(S(=O)(=O)Oc2ccc(/C=N/NC(=O)c3ccncc3)cc2)cc1
58	i	1	Cc1ccc(/C=C/c2nc3ccccc3c(=O)n2CCc2ccccc2)cc1
59	i	1.6	CNC(=S)NNC(=O)c1ccccc1Cl
60	i	-0.88	Cc1cc(C(=O)OCC(=O)NC(C)C)c2ccccc2n1
61	i	0.61	CCCc1cc(C(=O)Nc2cc(OC)ccc2OC)cs1
62	i	-0.61	Cc1ccc(N(CC(=O)NCc2ccc(F)cc2)S(=O)(=O)c2c(C)nn(C)c2C)cc1
63	i	-0.03	COc1ccc(N2CCN(C(=O)c3ccc(NC(=O)C4=CSCCO4)cc3)CC2)cc1
64	i	0.29	CC(C)Cc1ccc(/C=C/C(=O)N2CCCCC2)cc1
65	i	-0.51	O=C(NN1C(=O)/C(=C/c2cccnc2)SC1=S)C(c1ccccc1)c1ccccc1
66	i	0.76	CCOC(=O)c1ccccc1NC(=O)C1COc2ccccc2O1 (stereo not drawn)
67	i	-1.5	CCOC(=O)C(=CNc1ccccc1C)C(=O)OCC
68	i	0.22	O=C(NCc1ccccc1)NC1(C(=O)N2CCN(c3ccccc3)CC2)CCCCC1
69	i	1.7	CC(C)CC(=O)Nc1ccnc(-c2ccncc2)n1
70	i	-0.82	COc1ccc(NC(=O)Cc2ccc(Cl)cc2)cc1NC(=O)c1ccco1
71	i	0.59	COc1ccc(OCC(=O)O/N=C(\N)Cc2cccs2)cc1
72	i	-1	COc1ccccc1-c1cc(C(=O)N2CCN(c3ccccc3)CC2)no1
73	i	-1.9	O=C(Nc1ccc(F)cc1)C(c1ccccc1)N1CCN(S(=O)(=O)c2c(F)cccc2F)CC1 (stereo not drawn)
74	i	0.87	COc1ccc(CC(=O)NC(=S)Nc2cccc(C)c2)cc1
75	i	0.82	CC(Oc1ccccc1)c1nnc(N)s1 (stereo not drawn)
76	i	1.4	Cc1c(-n2cc(C(=O)O)c(=O)c3cc(F)c(N4CCCC4)c(F)c32)c(=O)n(-c2ccccc2)n1C
77	i	-0.98	Cc1cc(C(=O)COC(=O)CCCN2C(=O)c3ccccc3C2=O)c(C)n1C
78	-5.6*	-0.66*	Cc1ccc(-n2c(SCC(N)=O)nc3c(c2=O)C2(CCCC2)Cc2ccccc2-3)cc1
79	i	-0.85	CCCNC(=O)NS(=O)(=O)c1cnccc1Sc1ccc(Cl)cc1
80	i	0.27	Cc1cccc(N=C/C(C(=O)C(F)(F)F)=C(\O)c2ccco2)c1
81	i	-0.33	Fc1ccc(-c2cnc(-c3cccs3)o2)cc1
82	i	-0.57	CSCC[C@@H](CO)NC(=O)c1ccc2nc(C3CCCCC3)oc2c1
83	i	1.4	CCn1c(=O)c2sccc2n2c(CCCC(=O)NCc3cccnc3)nnc12
84	i	1.1	O=C(CN1CCN(C(=O)N2CCOCC2)CC1)Nc1cc(Cl)ccc1Cl
85	i	2.2	Cc1nc(-c2ccccc2)sc1C(=O)CSc1ccc(F)cc1
86	i	-0.06	CCOc1cc2c(cc1C(C)(C)C)NC(=O)CS2
87	i	0.01	O=C(O/N=C\c1ccc(N2CCOCC2)c([N+](=O)[O-])c1)c1ccccc1Cl
88	i	-0.19	CCS(=O)(=O)N1CCC(C(=O)NCCCN2CCC(Cc3ccccc3)CC2)CC1
89	i	1.8	Fc1ccc(-c2n[nH]c(=S)n2Cc2ccccc2)cc1
90	i	-0.99	CCS(=O)(=O)C1=NN2C(=N)/C(=C\c3ccc(OC(=O)c4ccco4)cc3)C(=O)N=C2S1

Down the list, quoted from above:
KCNQ2 block for entries 70–81 → i, i, i, i, i, i, i, i, -5.6*, i, i, i
KCNQ2 block baseline for entries 70–81 → -0.82, 0.59, -1, -1.9, 0.87, 0.82, 1.4, -0.98, -0.66*, -0.85, 0.27, -0.33

4 neighbouring records out of the list so far, for reference:
#	KCNQ2 block	KCNQ2 block baseline	smiles
78	-5.6*	-0.66*	Cc1ccc(-n2c(SCC(N)=O)nc3c(c2=O)C2(CCCC2)Cc2ccccc2-3)cc1
79	i	-0.85	CCCNC(=O)NS(=O)(=O)c1cnccc1Sc1ccc(Cl)cc1
80	i	0.27	Cc1cccc(N=C/C(C(=O)C(F)(F)F)=C(\O)c2ccco2)c1
81	i	-0.33	Fc1ccc(-c2cnc(-c3cccs3)o2)cc1

(listing goes on)
#	KCNQ2 block	KCNQ2 block baseline	smiles
91	i	-1.1	Cc1ccccc1NC(=O)N1CCC(C(=O)c2ccc(F)cc2)CC1
92	i	0.35	COc1ccc(CN2C(=O)c3ccccc3C2C(=O)NCCc2ccccc2)c(OC)c1 (stereo not drawn)
93	i	1.3	Cc1ccc(NC(=O)C(OC(=O)c2cc(C)oc2C)c2ccccc2)cc1 (stereo not drawn)
94	i	0.03	Cc1ccc(S(=O)(=O)N2CCOCC2)s1
95	i	1.8	Cc1ccccc1NC(=O)C(=O)NCCc1c[nH]c2ccccc12
96	i	-2.2	CCOC(=O)c1c(C)oc2c1c(CN1CCN(C(=O)OCC)CC1)c(O)c1ccccc12
97	i	-0.04	COc1ccc(-c2cc(C(=O)NC3CCCC3)c3ccccc3n2)cc1
98	i	0.26	COc1ccc(OCc2nnnn2-c2ccccc2)cc1
99	i	0.78	Cc1ccc(NC(=O)C2CC(=O)Nc3nc4ccccc4n32)c(C)c1 (stereo not drawn)
100	i	-1.6	O=C(CSc1nnc(CNC(=O)c2cccc(C(F)(F)F)c2)o1)NCC1CCCO1 (stereo not drawn)
101	i	0.15	COc1ccccc1NC(=O)c1ccc(C)c(S(=O)(=O)N2CCCCC2)c1
102	i	0.49	CC(C)N(C(=S)Nc1cccc(S(=O)(=O)N(C)C)c1)c1ccccc1
103	i	-0.6	Cc1cc(C)nc(/N=C(\N)Nc2cccc(OCc3ccccc3)c2)n1
104	i	1.4	C=C1CCC[C@]2(C)C[C@H]3OC(=O)C(CNCC(C)C)[C@H]3CC12 (stereo partly drawn)
105	i	-0.66	COc1ccc(C2C(C#N)=C(N)N(c3ncn[nH]3)C3=C2C(=O)CCC3)cc1 (stereo not drawn)
106	i	-1.1	CCN(CC)CCn1c2ccccc2c2nc(C)sc21
107	i	-0.18	Cc1c(Cl)c(C(F)(F)F)nn1CC(=O)NCc1ccccc1
108	i	-2.4	O=C(Cn1c(=O)oc2ccccc21)N1CCCC1
109	i	-0.66	Cc1cccnc1N(C(=O)Nc1cccc(Cl)c1)C1=NCC(C)(C)S1
110	i	0.13	CCC12CC3CC(C1)CC(C(=O)NNC(N)=O)(C3)C2
111	i	3.2	COc1ccc(C2C3=C(CCCC3=O)N(CC(=O)O)C3=C2C(=O)CCC3)cc1
112	i	-1.1	COc1ccc(N2C(=O)CC(NNc3ncc(Cl)cc3Cl)C2=O)cc1 (stereo not drawn)
113	i	-0.5	ClCC1CSC(=NC23CC4CC(CC(C4)C2)C3)O1 (stereo not drawn)
114	i	-0.66	CCCC1=C(C(=O)OCC)C(c2ccc(OC)c(C)c2OC)C(C#N)=C(N)O1 (stereo not drawn)
115	i	0.76	O=C(/C=C/c1c[nH]c2ccccc12)c1ccccc1
116	i	0.17	CCOc1ccc(C(C(=O)NC2CCCCC2)N(C(=O)c2ccccn2)c2cccnc2)cc1 (stereo not drawn)
117	i	0.11	CS(=O)(=O)Nc1ccc(C(=O)Nc2ccc3ccccc3c2)cc1
118	i	-1.4	Cc1ccc(CNC(=O)CCNC(=O)Cn2ccc3ccccc3c2=O)cc1
119	i	0.9	C/C(CC(=O)Nc1cccnc1)=N\NC(=O)C(=O)NC(C)C

Profiles, quoted from the list:
Entry for COc1ccc(C2C3=C(CCCC3=O)N(CC(=O)O)C3=C2C(=O)CCC3)cc1 : KCNQ2 block: i; KCNQ2 block baseline: 3.2
Entry for COc1ccc(N2CCN(C(=O)c3ccc(NC(=O)C4=CSCCO4)cc3)CC2)cc1 : KCNQ2 block: i; KCNQ2 block baseline: -0.03
